Screening data (PubChem)
MT1-MMP act inh = inhibitors of human MT1-MMP activation. P50281. HT1080 RFP-PRO-GFP cells, GFP/RFP ratio fluorescence, overnight; percent of plate control window, DMSO zero. GFP/RFP ratio change, % at 20 µM. 360,000 compounds, 0.061% hits;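 active means GFP/RFP ratio change of at least 30% with cell ATP level not reduced by more than half and red fluorescence within 50% of control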; further: strong numbers were not always called active
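Material – HT1080 RFP-PRO-GFP cells · Control set – DMSO wells and RFP-L50D-GFP cells · Incubation – overnight cell settling, then overnight compound exposure, 37 °C, 5% CO2 · Compound dosing – single-point 20 µM compound, 1% DMSO · Read-out – GFP/RFP fluorescence ratio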
UUG fidelity = alters start codon recognition fidelity in yeast. S. cerevisiae UUG-firefly luciferase reporter, luminescence/redox ratio. activity score, % at 18.7 µM. 350,000 compounds, 0.13% hits. AID 602363;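 active means replicate mean at a twofold rise or more, about +100% in these data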;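 further: firefly luciferase made from a UUG start codon reports start codon fidelity; reporter light over untreated wells divided by growth signal over untreated wells; some hits fall short of that in this replicate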
Env fusion inh = inhibitors of HIV Env-mediated cell fusion. 360,000 compounds, 1.1% hits. HeLa-JRFL Env/CEM21 cell fusion, luciferase. inhibition, % at 12.3 µM;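 active means mean replicate inhibition score of at least 50 and every replicate individually at or above 50; inconclusive means only one of the two criteria met; inactive means mean below 50 and not all replicates reaching 50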;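 further: 0% = plate neutral controls and 100% = maraviroc near 300 nM; one replicate is shown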
eIF4H FP inh = inhibitors of RNA binding by human eIF4H; eIF4H fluorescence polarization binding assay; inhibition, % at 35 µM; 290,000 compounds, 0.94% hits; AID 2012;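 active means 50% or more with normal probe brightness, or confirmed in later tests; inconclusive means above 50% with abnormal brightness, or retests that disagree; inactive means below 50% or failed in later tests; about a fifth of its hits are not listed in these tables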;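 further: calls also rest on retests at 20 µM and on dose response follow-up; 0% = protein and probe with vehicle and 100% = probe without protein; strong numbers were not always called active; many hits fall short of the cut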
CSC inhib = blocks cancer stem cells; cancer stem cell-like cells viability, luminescence; 300,000 compounds, 1.1% hits; inhibition, % at 7.5 µM;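 active means mean at 75% or more and at least half the replicates too; inconclusive means mean and replicates disagree; tested in HMLE shEcad cells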;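 further: 0% = median of negative and 100% = median of positive control wells; the first replicate is given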
Rce1 inh = blocks yeast Ras-converting enzyme. Q03530. yeast membranes, quenched prenylated peptide cleavage fluorescence. calls only. 290,000 compounds, 0.27% hits;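 active means fall in fluorescence gain of 50% or more versus controls, with final raw signal at or below 3038400; inconclusive means same 50% fall but final raw signal above 3038400; inactive means fall in fluorescence gain under 50%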;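 further: plate controls were neutral control wells for no effect and wells lacking membranes for full effect; tested at 10 µM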
Target sequence (Q03530 whole entry, looked up): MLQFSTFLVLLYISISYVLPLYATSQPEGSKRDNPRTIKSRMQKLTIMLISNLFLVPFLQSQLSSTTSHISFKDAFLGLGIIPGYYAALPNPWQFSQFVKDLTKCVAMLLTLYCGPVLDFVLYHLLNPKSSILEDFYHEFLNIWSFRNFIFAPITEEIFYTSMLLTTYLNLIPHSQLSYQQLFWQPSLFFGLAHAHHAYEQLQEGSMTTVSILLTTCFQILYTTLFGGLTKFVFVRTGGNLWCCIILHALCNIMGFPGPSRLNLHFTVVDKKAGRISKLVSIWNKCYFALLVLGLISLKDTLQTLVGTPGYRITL
PABP FP inh = PABP-poly(A) binding inhibition. P11940. PABP-poly(A) RNA binding, fluorescence polarization. inhibition, % at 35 µM. 290,000 compounds, 1% hits. AID 2014;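 active means 50% or more with normal probe brightness, or confirmed in later tests; inconclusive means above 50% with abnormal brightness, or retests that disagree; inactive means below 50% or failed in later tests; about a fifth of its hits are not listed in these tables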;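 further: calls also rest on retests at 20 µM and on dose response follow-up; controls were probe without protein and protein plus probe with vehicle; some compounds called inactive have numbers as strong as hits; many hits fall short of the cut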
Target sequence (P11940 whole entry, looked up): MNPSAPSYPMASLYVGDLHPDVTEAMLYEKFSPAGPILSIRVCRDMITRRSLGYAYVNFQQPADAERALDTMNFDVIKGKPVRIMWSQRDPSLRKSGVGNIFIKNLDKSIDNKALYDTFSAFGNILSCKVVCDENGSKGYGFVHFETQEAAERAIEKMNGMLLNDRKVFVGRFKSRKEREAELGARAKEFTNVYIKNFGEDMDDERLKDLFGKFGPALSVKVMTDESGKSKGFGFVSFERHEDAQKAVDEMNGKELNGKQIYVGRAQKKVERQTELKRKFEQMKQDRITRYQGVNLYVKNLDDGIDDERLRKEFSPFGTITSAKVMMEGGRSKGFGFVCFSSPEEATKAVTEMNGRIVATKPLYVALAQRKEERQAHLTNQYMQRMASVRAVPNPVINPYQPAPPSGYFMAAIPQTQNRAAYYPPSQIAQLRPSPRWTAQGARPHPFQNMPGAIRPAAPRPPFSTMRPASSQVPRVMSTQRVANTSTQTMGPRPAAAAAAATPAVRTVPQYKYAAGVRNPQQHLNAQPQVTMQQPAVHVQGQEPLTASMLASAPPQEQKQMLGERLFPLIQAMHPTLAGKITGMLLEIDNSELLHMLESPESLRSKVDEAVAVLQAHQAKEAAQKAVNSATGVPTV
MT1-MMP act inh RFP = also measured in MT1-MMP act inh; calls as there; RFP signal change, %; measured here: RFP expression control read;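 0 = vehicle wells; hits needed this value within 50% of zero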
Active calls of the source: *; i = inactive; ? = inconclusive; nt = not tested or not shown.

SMILES	MT1-MMP act inh	MT1-MMP act inh RFP	UUG fidelity	Env fusion inh	eIF4H FP inh	CSC inhib	Rce1 inh	PABP FP inh
c1ccc(-c2nnc(CSc3nncs3)o2)cc1	3	5	-18	nt	-9	-7	i	-1
Cc1nccn1CCCN1C(=O)OC2(CCCCC2)C1(C)O (stereo unspecified)	2	5	-12	nt	3	-8	i	-3
CC(=O)Oc1ccc2nc(-c3ccco3)oc(=O)c2c1	-1	-4	-4	3	5	-6	nt	5
Cn1nnc(NC(=O)c2ccc([N+](=O)[O-])cc2Cl)n1	1	-1	7	-3	4	-7	i	-4
COc1ccc(C(=O)N2CCN(c3ccc(NC(=O)c4cccs4)cc3)CC2)cc1	3	-10	6	12	-11	-6	i	4
CC(C)CNC(=S)N(CCCO)Cc1cc2cc3c(cc2[nH]c1=O)OCO3	1	-2	-33	2	6	-9	nt	1
CCOc1cc(C(=O)OCC(=O)NC(C)c2ccccc2)ccc1OCC(=O)N1CCOCC1 (stereo unspecified)	-1	2	nt	-1	-11	-6	i	12
CCCN(CCC)CCCNC(=O)c1cc2cc3ccc(Cl)cc3nc2o1	6	5	-8	-3	0	2	i	31
O=C(NCc1nc2ccccc2[nH]1)C1=C[C@H](c2ccc(C(F)(F)F)cc2)C[C@H](OCc2ccc(CO)cc2)O1	6	-9	-18	8	-4	28	i	-2
COc1cccc(NC(=O)CCc2ccccc2)c1	2	6	-9	-29	nt	-2	nt	nt
COC(=O)[C@@]12CCCCN1[C@H](c1ccc(-c3cccc(Cl)c3)c(OC)c1)[C@H]1C(=O)N(C)C(=O)[C@H]12	-2	-10	-12	16	nt	30	i	nt
CC1(C(=O)NS(=O)(=O)c2ccc3c(c2)CCO3)CCN1C(=O)CCC1CCCC1 (stereo unspecified)	-2	3	9	-2	nt	nt	nt	nt
CCc1ccc2c(CC(=O)Nc3nnc(C4CC4)s3)coc2c1	1	-2	nt	nt	3	-9	i	-6
CCCCn1c(N)c(N(CCOC)C(=O)c2ccc(F)c(S(=O)(=O)N3CCOCC3)c2)c(=O)[nH]c1=O	2	4	-26	0	nt	-9	i	nt
Cc1ccc(C)c(NC(=O)c2ccccc2C(=O)c2ccccc2)c1	1	2	-16	9	-4	-13	i	8
C[C@H](NC(=O)c1ccco1)C(=O)OCC(=O)N1CC(=O)Nc2ccccc21	2	4	-7	-19	nt	-12	nt	nt
O=C(NCCCn1ccnc1)c1c(F)cccc1F	0	1	-1	7	-8	3	i	8
CC(C)N(C(=O)[C@H]1CC(CC(=O)NCc2ccco2)C(=O)N2CCc3c([nH]c4ccccc34)[C@]12C)C(C)C (stereo partly specified)	-2	-3	10	-58	nt	4	nt	nt
Cc1ccc(C(=O)OCC(=O)N2CCCCCC2)c(O)c1	4	3	-28	-34	nt	nt	nt	nt
Cc1cc(NS(=O)(=O)c2ccc(NC(=S)NC(=O)c3ccc(F)cc3Cl)cc2)no1	3	0	nt	-82	0	-16	i	-1

Record cards (already shown). Order of values: MT1-MMP act inh	MT1-MMP act inh RFP	UUG fidelity	Env fusion inh	eIF4H FP inh	CSC inhib	Rce1 inh	PABP FP inh
Record of Cc1ccc(C(=O)OCC(=O)N2CCCCCC2)c(O)c1 : 4	3	-28	-34	nt	nt	nt	nt
Record of CC1(C(=O)NS(=O)(=O)c2ccc3c(c2)CCO3)CCN1C(=O)CCC1CCCC1 (stereo unspecified) : -2	3	9	-2	nt	nt	nt	nt

Following part.
SMILES	MT1-MMP act inh	MT1-MMP act inh RFP	UUG fidelity	Env fusion inh	eIF4H FP inh	CSC inhib	Rce1 inh	PABP FP inh
Cc1ccc(O)c(CNc2nccs2)c1	-4	4	-13	-124	8	-1	i	-9
Cc1cccc(N(CC(=O)Nc2ccc(CC#N)cc2)S(C)(=O)=O)c1	-2	-4	-5	nt	-5	-1	i	-6
CCC(C)NS(=O)(=O)c1ccc(OCC(=O)Nc2ccc3c(c2)OCCO3)cc1 (stereo unspecified)	-2	-4	-16	nt	-5	-9	i	-1
Cn1c(CN2CCCCC2)nc2cc(NC(=O)c3cccc(Br)c3)ccc21	1	-18	-27	67*	-1	9	i	-8
COc1cc(NC(=O)N[C@H](C(=O)O)C(C)C)cc(OC)c1	-3	2	3	-75	-4	3	i	10
CCOC(=O)CNS(=O)(=O)c1ccc(C(=O)O)cc1	2	4	9	nt	-5	1	i	7
CCCCCCNC(=O)O[C@H]1Cn2c(=O)ccc(=O)n2[C@@H]2CN(S(=O)(=O)c3ccc(C)cc3)C[C@]12O	-11	-17	-8	6	nt	nt	nt	nt
S=C(NNc1nc(Nc2ccccc2)nc(N2CCCCC2)n1)NC1CCCCC1	-2	0	nt	-3	15	-10	i	6
CCOC(=O)N1CCC(N2Cc3cccc(C(=O)NCc4ccc(OC)cc4)c3C2=O)CC1	nt	nt	nt	nt	4	3	i	-4
C=CCn1c(SCC2CCCCO2)nc2sc(CC)cc2c1=O (stereo unspecified)	1	-15	-6	17	-4	27	i	4
Cc1cccnc1NC(=O)c1cccc(S(=O)(=O)N2CCCc3ccccc32)c1	3	0	-19	27	-5	nt	i	16
CCOC(=O)C(=O)Nc1ccccc1C(N)=O	4	8	-17	nt	13	1	i	5
COc1ccc(C(=O)O/N=C(\N)c2ccccn2)cc1[N+](=O)[O-]	1	-1	-35	-68	1	nt	i	1
O=C(c1ccccc1)N1CCN(S(=O)(=O)c2cccc(NS(=O)(=O)c3ccccc3)c2)CC1	4	-1	nt	1	6	10	i	8
O=C1/C(=C/c2cccs2)CCC1C1CCCC1 (stereo unspecified)	3	1	nt	-94	1	-22	i	13
Cc1ccc(S(=O)(=O)N2CCC(NC(=O)c3cccnc3)CC2)cc1Cl	0	0	-8	15	-14	nt	i	2
COc1ccc(C2N(C(C)=O)CCN2S(=O)(=O)c2ccc(C)cc2)cc1 (stereo unspecified)	0	-1	15	0	8	-9	i	8
COc1ccccc1NC(=O)C1=C(C)N(c2ccccc2)C(=S)NC1c1cccc(C(F)(F)F)c1 (stereo unspecified)	-6	-12	-26	54	8	12	i	1
CCCC/S(CC1CC1(Cl)Cl)=N\S(=O)(=O)c1ccc(C)cc1 (stereo unspecified)	2	-6	4	-2	-6	20	i	1
CCc1ccc(-c2cc(C(=O)N/N=C/c3ccco3)[nH]n2)cc1	-2	-1	nt	4	-3	-4	i	7
CC1(C)CC2CC(C)(CN2S(=O)(=O)c2cccc(C(N)=O)c2)C1 (stereo unspecified)	1	2	-2	12	nt	-8	nt	nt
CCC(C)(C)C1CCc2c(sc(NC(=O)c3ccoc3C)c2C(N)=O)C1 (stereo unspecified)	1	1	-6	?	-12	-10	i	-7
Cc1ccc(CC(=O)OCCNC(=O)c2cccnc2)cc1	3	4	-13	nt	-13	0	i	42
O=C(NCC1COc2ccccc2O1)c1ccc(Cl)c(S(=O)(=O)N2CCCC2)c1 (stereo unspecified)	20	-11	-4	6	nt	1	nt	nt
COc1ccc(/C=N/NC(=O)c2ccc3nc[nH]c3c2)c(OC)c1	0	1	-17	4	nt	-11	i	nt
COc1ccc(/C=N/NC(=O)C(=O)N2CCCCCC2)cc1	-1	1	-2	-2	2	-14	i	7
CC(C)c1ccc(NC(=O)COC(=O)COc2ccccc2)cc1	0	2	nt	12	-5	-4	i	20
CC(C)c1cc(CNC(=O)CC2C(=O)NCCN2CC2CCCCC2)on1 (stereo unspecified)	1	3	nt	-2	7	-22	i	10
Cc1csc(=O)n1CC(=O)OCc1cccc2ccccc12	5	3	-7	-22	3	7	i	6
O=C(CCCSc1nc2ccccc2s1)NCc1ccc2c(c1)OCO2	0	3	nt	31	2	23	i	-11
Cc1ccc(C(=O)NCCc2nnc3ccc(SCC(=O)Nc4ccc(C)cc4C)nn23)cc1	-1	1	-11	nt	-4	-7	i	27
O=C(CCCc1ccccn1)c1cccc2ccccc12	-5	0	-36	-30	nt	nt	nt	nt
Cc1ccc(NC(=O)C2CCCN(S(=O)(=O)c3c(C)noc3C)C2)cc1F (stereo unspecified)	3	-2	-11	nt	-10	-4	i	-5
O=C(N/N=C/c1cccc(O)c1)c1ccc2c(c1)OCCO2	0	7	-83	-132	-3	14	i	10
Cc1ccc(C)n1-c1nnc(N2CCC(C(=O)NCCCN3CC(C)CC(C)C3)CC2)s1 (stereo unspecified)	2	4	-27	-4	nt	6	i	nt
Cc1csc(N2CCCC2c2nc3cc(Cl)c(N4CCCCC4)cc3n2CCOCCO)n1 (stereo unspecified)	3	0	-16	-1	nt	26	i	nt
COc1cc(/C=N/NC(=O)c2ccc(CSc3nncn3C)cc2)ccc1OCC(=O)N1CC(C)OC(C)C1 (stereo unspecified)	2	3	-18	0	-7	-4	i	6
CC(C(=O)NC1C=CS(=O)(=O)C1)N1C(=O)/C(=C/c2ccc(Cl)cc2)SC1=S (stereo unspecified)	0	-1	10	-12	-9	23	i	7
O=C(C[C@H]1C(=O)N(Cc2cccnc2)C[C@@H]1Cc1ccccc1)Nc1ccc(Br)cc1	2	-4	-10	-17	nt	nt	nt	nt
CCN1C(=O)c2cccc3c(NC(=O)c4ccc5c(c4)OCCO5)ccc1c23	nt	nt	-11	nt	0	-14	i	12
CCSc1nc(N2CCCCC2)c2c(c1C#N)CCCC2	-3	1	3	nt	0	48	i	-2
Cc1ccc(N2CC(C(=O)NCCS(=O)(=O)N3CCN(c4ccccc4)CC3)CC2=O)cc1 (stereo unspecified)	2	0	-10	-14	-2	-10	i	0
O=C(Nc1ccccc1C(F)(F)F)c1ccccn1	-1	1	nt	-15	-5	-6	i	-12
CC(C)(C)c1cc(OC(=O)c2ccncc2)ccc1O	4	5	1	-13	-6	19	nt	5
COC(=O)c1cccc(C(=O)Oc2cccc(Br)c2)n1	8	6	1	-25	-9	8	i	-4
CC1(C)CC(=O)c2cnc(N3CCc4ccccc43)nc2C1	-3	-3	nt	-88	-9	47	i	8
CC1(C)CC(=O)C2=C(C1)Nc1ccccc1NC2c1ccc(F)c(F)c1 (stereo unspecified)	-2	-2	-1	-23	4	-12	i	-2
CCCOc1ccc(N2CC(C(=O)Nc3ncccc3C)CC2=O)cc1 (stereo unspecified)	-4	3	-2	nt	-2	-8	i	1
COc1ccccc1CNC(=O)CC(C)C	1	3	-5	4	4	1	i	2
CSc1ncccc1C(=O)OCC(=O)N1CCOCC1	8	6	-1	19	-14	nt	i	6

Other entries follow.
SMILES	MT1-MMP act inh	MT1-MMP act inh RFP	UUG fidelity	Env fusion inh	eIF4H FP inh	CSC inhib	Rce1 inh	PABP FP inh
COc1ccccc1CNC(=O)CSc1nc(=O)n(Cc2ccncc2)c2c1CCC2	-2	2	-14	-2	nt	nt	i	nt
COc1ccc(CC(=O)Nc2ccc(C(=O)O)cc2NC(=O)Cc2ccc(OC)cc2)cc1	-2	-1	nt	-6	8	-3	i	-10
Cc1ccc(S(=O)(=O)N2CCN(S(C)(=O)=O)CC2)cc1	-4	0	nt	13	nt	-9	i	nt
COc1ccc(CCNC(=O)Cn2c(=O)n(CC3CCCO3)c(=O)c3cc(OC)c(OC)cc32)cc1OC (stereo unspecified)	3	0	nt	-8	-5	-12	i	-6
O=C(O)C(Oc1ccc2ccccc2c1)c1ccccc1 (stereo unspecified)	2	3	-9	6	nt	3	i	nt
COc1ccccc1Cn1cnc2cccnc21	2	3	-16	nt	-2	-14	i	4
O=C(O)CCCCCN=Cc1c(O)c2ccccc2oc1=O	1	-7	nt	1	1	nt	i	19
C=CC(COCc1ccccc1)N(Cc1ccccc1)S(=O)(=O)c1ccccc1Br (stereo unspecified)	-9	-11	-23	37	-11	-5	i	-14
CCOc1ccc(NC(=O)COC(=O)CSCC(=O)Nc2ccc(C)cc2C)cc1	5	9	-9	nt	nt	-15	nt	nt
COc1ccc(-c2cc(C#N)nc(N3CCNCC3)n2)cc1	-4	-1	-7	-30	-6	-6	i	-11
CCCC(=O)Nc1ccc(C(=O)Nc2nnc(COC)s2)cc1	1	0	-9	7	9	-13	i	4
